HPGD block – qHTS Assay for Inhibitors of HPGD (15-Hydroxyprostaglandin Dehydrogenase). 4.3% of 150,000 active. purified HPGD, NADH fluorescence kinetic, PGE2 substrate. Potency, µM, inactives show at the highest dose activity change, negative = inhibition, most hits filed as inhibitors; active = well fitted inhibition curve with a large enough effect (not every such curve was filed as active); inconclusive = small, poorly fitted or top-dose-only effect, or another doubt; inactive = no such curve, though single readings can be large or run the other way;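 also: top concentration of the series not given in the record; plate controls included wells without enzyme; inactives centre near -10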
Target sequence (P15428 whole entry, looked up): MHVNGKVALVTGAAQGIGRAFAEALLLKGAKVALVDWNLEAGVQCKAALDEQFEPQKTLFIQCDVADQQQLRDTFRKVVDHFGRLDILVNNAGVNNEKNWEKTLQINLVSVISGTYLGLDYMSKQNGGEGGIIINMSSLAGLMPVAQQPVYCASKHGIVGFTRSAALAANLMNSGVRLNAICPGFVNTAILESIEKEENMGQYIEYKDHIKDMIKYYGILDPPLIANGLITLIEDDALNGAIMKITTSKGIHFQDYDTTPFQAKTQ
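NADH formation kinetics: reaction with 30 uM PGE2 and 1 mM NAD+ (final), 20 nM enzyme, Tris-HCl pH 8 with Tween 20, after 15 min compound preincubation at room temperature. Fluorescence change, last versus first of five reads.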
Numbers without * were called inactive; ? = inconclusive; & = joins results of further samples. % is scaled to controls: 0 for no effect and ±100 for the full control effect; potency is read from the fitted curve at half-maximal effect. Some of the compounds tested; rates above refer to the full screens.

| smiles | HPGD block |
| --- | --- |
| Cc1ccc(NC(=O)CN2C(=O)C3CCCCN3C(=O)c3ccccc32)cc1 (stereo unspecified) | -10% |
| CCc1cccc2c(N=O)c(O)[nH]c12 | -7% |
| Cc1cc(C(=O)OCC(=O)c2ccc(Br)s2)c(C)o1 | ? |
| CCSc1nc(=S)n(-c2ccccc2)c(C)c1C(C)=O | -15% |
| COC(=O)c1cccc(COC(=O)c2ccc(N(C)C)cc2)c1 | -16% |
| CCC(=O)O[C@@]1(C(=O)CCl)C(C)CC2C3CCC4=CC(=O)C=C[C@@]4(C)[C@]3(F)C(O)C[C@]21C (stereo partly specified) | -5% |
| COc1ccccc1-c1nnc2n1N=C(c1ccc(O)c(O)c1)CS2 | -24% |
| C=CCONC(=O)c1cc(OCC(F)(F)F)ccc1OCC(F)(F)F | -9% |
| Cc1ccc(C2CC(C(F)(F)F)n3ncc(C(N)=O)c3N2)cc1 (stereo unspecified) | -9% |
| O=c1c2ccccc2ncn1-c1cccc(Cl)c1 | -1% |
| Cc1ccccc1-n1nc(C)c2c1N=C1C(Cl)=CC(Cl)=CN1C2c1ccc(C(=O)O)cc1 (stereo unspecified) | -11% |
| Cc1nc(CNS(=O)(=O)c2cc(C)c(C)cc2C)cs1 | -9% |
| Cc1cccc(C)c1-n1c(C)cc(/C=N/NC(N)=S)c1C | -11% |
| Clc1ccc(SCCn2ccnc2)cc1 | -8% |
| O=C(CN1C(=O)COc2ccc(Cl)cc21)N1CCc2ccccc21 | 3% |
| CN(C)c1cccc(C(=O)OCc2cc(=O)oc3cc(O)ccc23)c1 | ? |
| CCN(C(=O)C1CCN(S(=O)(=O)c2ccc3c(c2)oc(=O)n3C)CC1)c1cccc(C)c1 | -10% |
| CC(C)N1C/C(=C/c2ccsc2)C(=O)/C(=C/c2ccsc2)C1 | -4% |
| Cn1c(N/N=C/c2cccs2)nc2c1c(=O)n(Cc1ccccc1)c(=O)n2C | -3% |
| CCOC(=O)[C@@H]1C(c2c(OC)cc(OC)cc2OC)=NO[C@@H]1C(=O)OCC | -8% |
| CN(CC(=O)Nc1cccc2c1CCCC2)S(=O)(=O)c1ccc(Cl)cc1 | 4% |
| Cc1cc(C)c(C#N)c(SCc2ccccc2C(=O)O)n1 | -15% |
| Cc1ccc(C(=O)OCCN2CCN(c3ncc(C(F)(F)F)cc3Cl)CC2)cc1 | -12% |
| CCOC(=O)c1[nH]c(C)c(C(=O)N2CCN(c3ccccc3)CC2)c1C | -8% |
| CN(C)c1ccc(-c2nccc(NCCN3CCOCC3)n2)cc1 | ? |
| Cn1c(SCCSc2nnc(-c3ccccc3)n2C)nnc1-c1ccccc1 | -18% |
| CCN=C1S/C(=C\c2ccc(OCC)c(OC)c2)C(=O)N1CC | -15% |
| COC(=O)c1ccc(C(C(=O)NC2CCCCC2)N(Cc2ccccc2)C(=O)Cc2cccs2)cc1 (stereo unspecified) | -5% |
| CCOC(=O)C(CC)Sc1nc2c(c(=O)[nH]c(=O)n2C)n1C/C=C(/C)Cl (stereo unspecified) | 4µM* |
| Cc1c(-c2ccccc2)nc2ccccc2c1C(=O)O | 2% |
| CCn1c(=O)c2ccccc2n2c(SCC(=O)N3CCCc4ccccc43)nnc12 | -7% |
| Cc1cc(S(=O)(=O)NCCc2ccccc2)c(C)s1 | -6% |
| Cc1cc(=O)oc2c(CN(CC(C)C)CC(C)C)c(O)ccc12 | ? |
| NC(=O)COC(=O)C(Cc1ccccc1)NS(=O)(=O)c1ccccc1F (stereo unspecified) | -2% |
| Cc1c(C(=O)Nc2ccc(Cl)cc2)c2ccccn2c1C(=O)c1ccccc1 | ? |
| CCn1cc(/C=N\NC(=O)c2c[nH]c3ccccc23)c(C)n1 | -11% |
| CC1(C)CC(=O)C2=C(C1)OC1=C(C2)C(=O)CC(C)(C)C1 | -18% |
| O=C(NCc1ccccc1Cl)c1csc2c1CCCCC2 | -27% |
| O=C1CCc2cc(S(=O)(=O)N3CCC(C(=O)NCc4ccccn4)CC3)ccc2N1 | -3% |
| Cn1c(SCC(=O)NCc2ccc3c(c2)OCO3)nnc1-c1c[nH]c2ccccc12 | 1% |

Reprinted from the part before: 3 entries, then new ones.
| smiles | HPGD block |
| --- | --- |
| O=C(NCc1ccccc1Cl)c1csc2c1CCCCC2 | -27% |
| O=C1CCc2cc(S(=O)(=O)N3CCC(C(=O)NCc4ccccn4)CC3)ccc2N1 | -3% |
| Cn1c(SCC(=O)NCc2ccc3c(c2)OCO3)nnc1-c1c[nH]c2ccccc12 | 1% |
| O=C(NCc1cccnc1)c1cn(CCc2ccccc2)nn1 | -2% |
| Nc1nc(NC(=O)C(Cl)(Cl)Cl)nn1-c1ccccc1 | 2% |
| CC(=O)c1cccc(NS(=O)(=O)N(C)C)c1 | -16% |
| Cc1nnc(SCC(=O)N2c3ccccc3Sc3ccccc32)n1N | -4% |
| O=C(NC1CCCCC1)Sc1ccc(Cl)cc1 | 8.9µM* |
| CCOCCCNC(=O)Cc1ccc(Br)cc1 | -11% |
| N#CC(c1ccc(O)cc1)N1CCCCC1 (stereo unspecified) | -17% |
| COc1cc(OC)c(C(=O)Nc2cccc(C(C)=O)c2)cc1OC | -1% |
| Cc1ccc(C2C=C(c3ccccc3OC(F)F)Nc3ncnn32)cc1 (stereo unspecified) | ? |
| Cc1cc(Nc2ccccc2)n(CCC#N)n1 | -12% |
| COc1cc(C(=O)N(Cc2cccnc2)Cc2cc3cc4c(cc3[nH]c2=O)OCCO4)cc(OC)c1OC | ? |
| CN(C)c1ccc(NC(=O)CN2CCN(S(=O)(=O)c3cc(Cl)ccc3Cl)CC2)cc1 | -14% |
| O=C(CCn1nc(-c2ccc(Cl)cc2)ccc1=O)NCc1ccccn1 | -13% |
| CN(Cc1ccccc1)C(=S)NC(=O)c1ccc(-c2ccccc2)cc1 | 14µM* |
| Cc1c(C(=O)NN2CCN(C)CC2)cccc1[N+](=O)[O-] | -4% |
| CN(C(=O)n1cnc2ccccc21)c1ccccc1 | -5% |
| CCOC(=O)c1[nH]c(C)c(C(=O)N2CCN(c3ccc(F)cc3)CC2)c1C | -1% |
| O=C(COc1ccccc1)N1CCN(c2ccc([N+](=O)[O-])c(N3CCCCC3)c2)CC1 | -15% |
| COc1cc(OC)c2cc[nH]c2c1 | -3% |
| COc1cccc(/C=N/NC(=O)C(C)n2nnc3ccccc32)c1 (stereo unspecified) | -9% |

Among those listed so far, 7 have fluorine:
| smiles | HPGD block |
| --- | --- |
| CCC(=O)O[C@@]1(C(=O)CCl)C(C)CC2C3CCC4=CC(=O)C=C[C@@]4(C)[C@]3(F)C(O)C[C@]21C (stereo partly specified) | -5% |
| C=CCONC(=O)c1cc(OCC(F)(F)F)ccc1OCC(F)(F)F | -9% |
| Cc1ccc(C2CC(C(F)(F)F)n3ncc(C(N)=O)c3N2)cc1 (stereo unspecified) | -9% |
| Cc1ccc(C(=O)OCCN2CCN(c3ncc(C(F)(F)F)cc3Cl)CC2)cc1 | -12% |
| NC(=O)COC(=O)C(Cc1ccccc1)NS(=O)(=O)c1ccccc1F (stereo unspecified) | -2% |
| Cc1ccc(C2C=C(c3ccccc3OC(F)F)Nc3ncnn32)cc1 (stereo unspecified) | ? |
| CCOC(=O)c1[nH]c(C)c(C(=O)N2CCN(c3ccc(F)cc3)CC2)c1C | -1% |

More compounds
| smiles | HPGD block |
| --- | --- |
| CCC/S(C)=N/S(=O)(=O)c1ccc(C)cc1 (stereo unspecified) | -5% |
| O=S(=O)(c1ccccc1)c1nc(-c2cccs2)oc1NCC1CCCO1 (stereo unspecified) | -22% |
| CC(=O)c1cccc(NC(=O)c2ccc(Br)o2)c1 | -10% |
| CC(Sc1nnc2ccccn12)C(=O)Nc1ncc(Cl)cc1Cl (stereo unspecified) | -10% |
| Cc1cccc(-c2nc3ccccc3c(=O)n2NC(=S)N(C)C)c1 | 16µM* |
| NC(=O)c1ccccc1NC(=O)c1ccccc1S(=O)(=O)c1ccccc1[N+](=O)[O-] | 1% |
| CC(C)(O)CCC(O)[C@@](C)(O)C1CC[C@]2(O)C3=CC(=O)C4CC(O)C(O)C[C@]4(C)C3CC[C@]12C (stereo partly specified) | -8% |
| CCCc1cc(C(=O)Nc2cccnc2Cl)no1 | -5% |
| Cc1ccc(C(=O)NCC(=O)OC(C)C(=O)NCCC2=CCCCC2)cc1C (stereo unspecified) | 3% |
| CCCNC(=O)NC(=O)COC(=O)c1ccc(OC)c(S(=O)(=O)N2CCCc3ccccc32)c1 | -4% |
| COc1ccccc1CNS(=O)(=O)c1ccc2c(c1)oc(=O)n2C | -9% |
| Cc1ccccc1NC(=O)COC(=O)c1ccc(CSc2ccc(Cl)cc2)cc1 | -8% |
| COc1cccc(NC(=O)CN2CCN(S(=O)(=O)c3ccc(F)cc3)CC2)c1 | 1% |
| Oc1ccc(Br)cc1-c1cc(-c2ccccc2F)[nH]n1 | 4.5µM* |
| S=C(NCc1cccnc1)Nc1ccc(Cl)c(Cl)c1 | 14µM* |
| CCOC(=O)c1ccc(NC(=O)C2CCCN(S(=O)(=O)c3ccc(F)cc3)C2)cc1 (stereo unspecified) | -14% |
| COc1ccc(NC(=O)CCSCCC(=O)Nc2ccc(OC)cc2OC)c(OC)c1 | 0% |
| CCC(C)(C)NC(=O)C(c1ccc(C)o1)N(Cc1cccs1)C(=O)Cn1nnc2ccccc21 (stereo unspecified) | -7% |
| C=CCNc1nc(N)c(C(=O)c2ccc3c(c2)OCO3)s1 | ? |
| CCn1c(NCc2cccc(OC)c2OC)nc2ccccc21 | -5% |
| O=C(NC1CCCCCC1)c1c2c(nc3ccccc13)CCN(Cc1ccccc1)C2 | -8% |
| O=C(CCc1nc2ccccc2[nH]c1=O)OCc1ccc(S(=O)(=O)N2CCOCC2)cc1 | -25% |
| CCOc1c2ccc(C(=O)NCc3cc(C(F)(F)F)cc(C(F)(F)F)c3)cc2nn1CCOC | ? |
| NC(C(=O)NC1C(=O)N2C(C(=O)O)=C(Cl)CSC12)c1ccccc1 (stereo unspecified) | ? |
| CC1CN(C(=O)Nc2ccc3snnc3c2)c2ccccc21 (stereo unspecified) | -3% |
| O=C(NCc1cccnc1)/C(=C\c1ccc(-c2ccc(Br)cc2)o1)S(=O)(=O)c1ccccc1 | -16% |
| Cc1ccc2c(c1)C(c1ccc([N+](=O)[O-])cc1)=NNC(c1ccc(Br)cc1)=N2 | -10% |
| O=C(Nc1ccccc1)OC1C2CCC1C(N1CCCCC1)CC2 (stereo unspecified) | -6% |
| CCCCCCCC1Cc2ccccc2C(C(C(=O)OC)C(=O)OC)N1C(=O)OC (stereo unspecified) | -14%&-1% |
| COc1cc(C)c(Cl)cc1S(=O)(=O)NCc1ccco1 | -2% |
| CSc1nc(SCC(N)=O)c2c3c(sc2n1)CN(C)CC3 | -26% |
| CCOC(=O)c1ccc(NC(=O)CC2OCCN(CC)C2=O)cc1 (stereo unspecified) | -5% |
| O=C1CSC(c2cccnc2)N1c1ccc(F)cc1 (stereo unspecified) | -1% |
| O=C(c1ccc(Cl)cc1)c1ccc(CN2C(=O)c3ccccc3C2=O)o1 | -20% |
| CN(Cc1ccccc1)c1nc(N)c([N+](=O)[O-])c(NCc2ccccc2)n1 | -12% |
| COc1ccc(C)cc1N(C(=O)COc1cccc(F)c1)c1nc2ccccc2s1 | ? |
| OCc1ccc(-c2nn(Cc3ccccc3)c3ccccc23)o1 | ? |
| CCn1c(-c2cccnc2)n[nH]c1=S | 0% |
| CCC(=O)NCCNc1nc2cc(C)c(C)cc2cc1C#N | ? |
| CCC1CCC(c2nnc(-c3ccc([N+](=O)[O-])cc3)o2)CC1 (stereo unspecified) | -4% |
| CCOC(=O)c1cc(-c2ccc(C)cc2)nc2nc(SC)[nH]c(=O)c12 | ? |
| CCN1CCN(C(=O)/C=C/c2ccc([N+](=O)[O-])cc2)CC1 | -29% |
| CCOCCCNc1ncnc2c1[nH]c1ccccc12 | ? |
| OCC1OC(O)C(O)C(O)C1O (stereo unspecified) | -5% |
| N/C(=N\c1nc2c(c(=O)[nH]1)CCC2)Nc1cccc(Cl)c1 | -11% |
| Cc1ccccc1Nc1nc(N)nc(CSc2nc3ccccc3c(=O)n2C)n1 | -5% |
| COc1ccc(S(=O)(=O)O/N=C2\CCCc3ccccc32)cc1 | -7% |
| Cc1cccc2cc(C#N)c(NCCCn3ccnc3)nc12 | ? |
| O=C(CSc1ncccc1C(=O)O)c1ccc2ccccc2c1 | -21% |
| CC1C/C(=N/N2C(=O)CSC2=S)CC(C)(C)C1 (stereo unspecified) | 2% |
| O=c1c(-c2ccccc2)nc2cnc(N3CCNCC3)nc2n1Cc1cccs1 | ? |
| CCc1nnc(NC(=O)C(C)C)s1 | -11% |
| COc1ccc(OC)c(NC(=O)Cn2cccc2)c1 | -15% |
| COC(=O)Nc1nc2c(s1)CCCC2 | -5% |
| COc1cc(C(C(=O)NC2CCCCC2)N(Cc2cccs2)C(=O)Cc2c[nH]c3ccccc23)cc(OC)c1OC (stereo unspecified) | -11% |
| Cc1cccc(C(=O)N2CCc3cc(-c4nc(NC(=O)Cn5nnc6ccccc6c5=O)sc4C)ccc32)c1 | -14% |
| CNC(=O)[C@@]1(C)C=C[C@@H](Cc2ccccc2)N1C(C)=O | -14% |
| O=C(O)c1cc(S(=O)(=O)N2CCCCCC2)ccc1Cl | -3% |
| C/C(=N\NC(=O)c1csc2ccccc12)c1ccc(O)cc1 | -13% |
| CCCCn1c(SCC(=O)NCc2cccs2)nc2c1c(=O)n(C)c(=O)n2C | -9% |

(next part)
| smiles | HPGD block |
| --- | --- |
| CCOC(=O)C1=C(N)N(c2ccc(C)cc2)C2=C(C(=O)CCC2)C1c1cccs1 (stereo unspecified) | -25% |
| Cc1ccc(C2=CC(c3cccs3)n3nnnc3N2)cc1 (stereo unspecified) | -13% |
| CCOC(=O)c1ccc(Oc2nc(SC)nc(N(C)C)n2)cc1 | -8% |
| COc1ccccc1C(=O)N1c2ccccc2Sc2ccccc21 | -2% |
| COc1cc(C(=S)N2CCCCC2)ccc1OCC(=O)N1CCCC1 | -6% |

Screens (PubChem BioAssay)
